# CtBP-E1A inh – CtBP/E1A binding inhibition. hit rate 0.49% among 340,000. activity change, % (no concentration beside the values). AlphaScreen GST-E1A/His-CtBP binding, 1536-well; hits give low values; control for the full effect not named in the record; in the data active means activity change below about -65%; inconclusive means about -30% to -65%; inactive means above about -30%; note: % is set by controls: 0 for no effect and ±100 for the full control effect; compound concentration not given in the record
#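 Homogeneous bead-based format: GST-tagged E1A captured on glutathione donor beads, His-tagged CtBP on nickel acceptor beads; compounds precede bead addition by 2 h at 37 °C.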
# TRPV1 potentiator – human TRPV1 potentiation. Q8NER1. TRPV1-expressing cells, Fluo-8 calcium influx, capsaicin EC20 potentiation; host cell line not named in the record; control for the full effect not named in the record. potentiation, % at 8.33 µM. hit rate 0.02% among 320,000. AID 540277; active means potentiation above 80%; inconclusive means 30% to 80%; inactive means below 30%; note: 0% is about no effect
#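 TRPV1-expressing cells were cultured overnight at 35.5C and loaded with Fluo-8 calcium dye for 40 to 90 min at room temperature. After a 10 s baseline, compound was added and calcium influx was read kinetically for 3 min (ex 480/em 520 nm).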
# D2 agonist – activates the human D2 dopamine receptor; AID 624465; DiscoveRx PathHunter D2 beta-arrestin, luminescence, 90 min; 100% = 57 uM dopamine signal; hit rate 0.084% among 360,000; activation, % (test concentration not listed); in the data active = activation above about 40%; inconclusive = about 15% to 40%; inactive = below about 15%; note: compound concentration not given in the record; the text of the record calls up to 30% inactive
# Target sequence (P14416 whole entry, looked up): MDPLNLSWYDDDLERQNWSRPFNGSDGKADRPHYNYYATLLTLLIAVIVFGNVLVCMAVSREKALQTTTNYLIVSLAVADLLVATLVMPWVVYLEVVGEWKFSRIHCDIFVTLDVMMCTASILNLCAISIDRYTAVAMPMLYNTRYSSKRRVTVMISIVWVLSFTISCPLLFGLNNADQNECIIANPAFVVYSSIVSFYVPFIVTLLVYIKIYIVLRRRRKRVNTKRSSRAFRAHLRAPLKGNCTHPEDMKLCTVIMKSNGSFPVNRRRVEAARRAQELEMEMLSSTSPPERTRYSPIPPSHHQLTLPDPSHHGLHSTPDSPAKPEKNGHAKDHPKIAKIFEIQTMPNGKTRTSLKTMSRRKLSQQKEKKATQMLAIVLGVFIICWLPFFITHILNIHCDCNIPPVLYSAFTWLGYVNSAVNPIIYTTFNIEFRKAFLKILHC
#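 DiscoveRx PathHunter D2 beta-arrestin cells (2,100/well) attached overnight, then compound-stimulated 90 min at 37 C in HBSS/10 mM HEPES/0.1% Tween-20 buffer; beta-galactosidase complementation read by luminescence after 1 h at ambient temperature. Dopamine 57 uM final (EC100) as control.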
# Sfp inh – blocks B. subtilis Sfp PPTase activity | Q9F4F7 | Biochemical Sfp PPTase activity, qHTS | Potency, µM, without a hit: max response, negative = inhibition, actives largely listed as inhibitors | hit rate 3.5% among 310,000 | AID 1490; active = well fitted inhibition curve with a large enough effect; inconclusive = small, poorly fitted or top-dose-only effect, or another doubt; inactive = no such curve, though single readings can be large or run the other way;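 note: the enzyme is Sfp with the accession as filed and its product quenches rhodamine fluorescence; potency is the fitted concentration of half-maximal effect; 0% = enzyme reaction without inhibitor and -100% = no enzyme wells; top concentration of the series not given in the record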
#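 Fluorescence-quenching assay: 15 nM Sfp-PPTase preincubated 15 min at room temperature with compound, then 5 uM rhodamine-CoA and 12.5 uM BHQ-2-labelled YbbR peptide added. Fluorescence (ex 525/em 598 nm) read at start and after 30 min; difference gives rate.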
# PINK1 expr mod – PINK1 expression modulation; PINK1 immunofluorescence, high-content cytometry, 24 h; Potency, µM (doses to about 76.6 µM), inactives show top-dose activation (PINK1 increase), hits mostly activators; hit rate 0.2% among 410,000; AID 624263; active = well fitted activation curve with a large enough effect; inconclusive = small, poorly fitted or top-dose-only effect; inactive = flat fitted curve, though single readings scatter; cell line not stated here;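 note: potency is the fitted concentration of half-maximal effect; % of control where 0% means no effect; nearly all actives have a fitted effect of over 65% in size; a mitochondrial uncoupler was the plate control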
#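 Measures PINK1 amount and localization on or inside mitochondria by immunofluorescence. Stable cells get compounds at 5 concentrations for 24 hours before fixation and staining; CCCP controls included.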
# Six1-Eya2 blk – blocks human Six1 binding to Eya2; AID 651725; activity change, % (no concentration beside the values); Q15475+O00167; AlphaScreen GST-Six1/His-Eya2 binding, biochemical; hits give low values; control for the full effect not named in the record; hit rate 0.56% among 360,000; in the data active = activity change below about -65%; inconclusive = about -30% to -65%; inactive = above about -30%; note: % is set by controls: 0 for no effect and ±100 for the full control effect; compound concentration not given in the record
#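 GST-Six1 + His-Eya2 (5X stock: 250/500 nM); Tris pH 8.0, 300 mM NaCl, 0.05% BSA, 0.02% Tween 20; GSH donor/Ni acceptor beads; 1 h 37 °C dark; AlphaScreen readout.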
# D2 PAM – human D2 receptor positive allosteric modulation | P14416 | DiscoveRx D2 beta-arrestin cells, luminescence, 90 min; 100% = 57 uM dopamine signal | potentiation, % (no concentration beside the values) | hit rate 0.23% among 360,000; active = potentiation of 50% or more; inconclusive = 30% to 50%; inactive = 30% or less;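 note: compound concentration not given in the record; tested on top of an EC20 dose of dopamine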
#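 PathHunter beta-arrestin assay in DiscoveRx D2 cells. Compounds were added with an EC20 of dopamine (50 nM final) for 90 min at 37 deg C. Luminescence was read 1 h after detection reagent, with 57 uM dopamine as the EC100 control.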
# * hit, by the source's call; ? = inconclusive; . = not tested or not shown; & = joins results of further samples; [ ] = remark or other dose.
SMILES,CtBP-E1A inh,TRPV1 potentiator,D2 agonist,Sfp inh,PINK1 expr mod,Six1-Eya2 blk,D2 PAM
Cc1cc(Nc2cccc([N+](=O)[O-])c2)c2ccccc2n1,-8,0,-0.8,3%,1.1%,0,-15
Cc1cn(S(=O)(=O)c2cc(Br)ccc2Br)cn1,6,-28,-1.6,5%,?,8,-23
COC(=O)C[C@H]1c2cc(F)ccc2S(=O)(=O)N1C(C)C,4,.,-2.0,.,0.4%,7,-1
COc1ccc(NS(=O)(=O)c2cccc(C(=O)NCC(c3ccc(F)cc3)N3CCOCC3)c2)cc1 (centres undefined),-9,3,-1.7,4%,3.6%,1,-13
COc1ccccc1CNC(=O)CN1C(=O)COc2ccc(S(=O)(=O)N3CCCCC3)cc21,2,4,-2.3,1%,0.4%&-0.2%,0,-9
CC(=O)Nc1ccc(OCC(O)Cn2nc(C)nc2C)cc1 (centres undefined),9,8,-0.7,13%,-0.2%[38.3 µM],4,-22
COc1cccc(NS(=O)(=O)c2cc3c4c(c2)CCC(=O)N4CCC3)c1,6,25,0.3,.,0.1%,-1,-2
Cc1ccc(-c2nc(NC(=O)CSc3ncn[nH]3)ns2)cc1,6,-13,2.4,22%,-0.9%,0,1
COc1ccc(C(=O)NC(=S)N2CCN(c3ccccc3O)CC2)cc1,1,.,5.6,.,7.2%,-10,-10
Cc1cc(C)c2oc(C(=O)NCCc3ccc(S(N)(=O)=O)cc3)cc(=O)c2c1,5,13,-2.5,7%,4.8%&2.0%,2,-1
CCOC(=O)C1CCCN(C(=O)c2cc(C#N)cs2)CC1 (centres undefined),5,.,4.8,.,-0.5%,3,0
CCn1c(C)nc2cc(C(=O)N/N=C/c3ccc(OC)c(O)c3)ccc21,-24,3,0.9,3%,0.5%,-19,8
O=C(O)CC/C(=N/NC(=O)c1cccs1)c1ccccc1,-3,-5,-0.7,12%,1.4%,1,-11
CCOC(=O)Cn1nc(C)c(NC(=O)CCc2ccc(OC)cc2)c1C,4,-14,-4.9,10%,0.1%,13,-10
CC1(C)CC(=O)C(C2c3ccccc3S(=O)(=O)c3ccccc32)C(=O)C1,.,?,-5.1,-84%,-0.5%,6,-12
O=C(c1cccn2c(=O)c3ccccc3nc12)N1CCN(Cc2ccc3c(c2)OCO3)CC1,-3,1,-0.9,-3%,-3.8%[38.3 µM],-2,-15
COc1ccc(C(=O)NCCc2cn3ccc(C)cc3n2)cc1,-11,-2,8.2,11%,0.1%,-12,-7
O=C1CCN(Cc2ccc(Br)cc2)CCN1[C@H](CO)Cc1ccccc1,3,21,-7.4,15%,1.1%,6,-21
CC(C)c1ccc(CN2CCC(C)(Oc3ccc(Cl)cc3)C2)cc1 (centres undefined),1,.,5.5,.,?,7,7
CC(=O)Nc1ccc(OCC(O)Cn2c(CO)nc3ccccc32)cc1 (centres undefined),9,18,-0.3,19%,1.2%,-4,2
CCNC(=O)NC(=O)C(C)On1nnc2ccc(S(=O)(=O)N(CC)CC)cc21 (centres undefined),0,18,1.1,2%,8.2%,3,4
COc1ccc(-c2cc(=O)oc3c(C)c(OCC(=O)N(C)C)ccc23)cc1,-7,-12,-1.8,-3%,2.0%,-1,-3
CC(NC(=S)Nc1ccc(OC(F)F)cc1OC(F)F)C(C)(C)C (centres undefined),4,-21,-7.7,-11%,?,8,-1
COc1ccc(OC)c(/C=C/C(=O)N2C(=O)c3cccc(N)c3C2=O)c1,7,-8,-5.1,5%,1.7%,-15,-23
Cc1ccc(OCC2Cn3c(nc4c3c(=O)[nH]c(=O)n4C)O2)cc1 (centres undefined),-2,-11,-2.1,8%,4.8%[38.3 µM],-1,-2

# Entries from the list above containing a thiophene ring, fused or not (two):
SMILES,CtBP-E1A inh,TRPV1 potentiator,D2 agonist,Sfp inh,PINK1 expr mod,Six1-Eya2 blk,D2 PAM
CCOC(=O)C1CCCN(C(=O)c2cc(C#N)cs2)CC1 (centres undefined),5,.,4.8,.,-0.5%,3,0
O=C(O)CC/C(=N/NC(=O)c1cccs1)c1ccccc1,-3,-5,-0.7,12%,1.4%,1,-11

# Going on with the list.
SMILES,CtBP-E1A inh,TRPV1 potentiator,D2 agonist,Sfp inh,PINK1 expr mod,Six1-Eya2 blk,D2 PAM
O=C(Nc1ccc(N2CCCCC2)cc1)c1cccnc1,1,2,3.0,4%,0.8%,0,12
CCC(C)(C)NC(=O)C(c1cccn1C)N(C(=O)Cn1nnc2ccccc21)c1ccccc1OC (centres undefined),4,-17,0.4,15%,-2.3%,-7,-9
COc1ccc2oc(C(=O)NCc3cc(OC)c(OC)cc3OC)c(C)c2c1,-24,-6,-2.0,-8%,3.1%,-15,-6
O=C(c1ccc(-n2cncn2)c([N+](=O)[O-])c1)N1CCN(S(=O)(=O)c2cccc(F)c2)CC1,-1,-18,-1.3,.,-0.9%,1,16
CCOC(=O)c1sc(NC(=O)CCN2C(=O)C3CCCCC3C2=O)cc1C (centres undefined),-12,-14,-5.6,.,0.4%,-5,-7
O=C(COC(=O)C1=COCCO1)Nc1ccc(Br)cc1Br,-2,.,1.2,.,0.9%,0,-5
COC(=O)c1cc(NC(=O)c2nccnc2C(=O)O)cc(C(=O)OC)c1,0,3,4.6,56µM*,1.8%,5,-8
Nc1nc(-c2cccnc2)nn1S(=O)(=O)c1ccccc1,-14,.,-1.3,.,0.8%,-2,-6
O=C(NCc1cccs1)C(=O)NCC(c1ccco1)N1CCN(c2ccccc2F)CC1 (centres undefined),0,-1,9.7,27%,0.8%,-4,-3
O=C(COc1ccc2c(C(F)(F)F)cc(=O)oc2c1)Nc1ccc2c(c1)OCCO2,2,17,-2.9,-2%,4.4%,1,-11
CC(=O)Nc1ccc(S(=O)(=O)NC(C)(C#N)C2CC2)cc1 (centres undefined),-2,26,-0.5,13%,-0.5%,-2,-4
O=C(C(Cc1ccccc1)N1C(=O)C2C3C=CC(C3)C2C1=O)N1CCCCCC1 (centres undefined),-1,-7,-3.8,3%,-0.7%,-2,-18
O=[N+]([O-])c1cccc(OCc2cn3cccnc3n2)c1,.,6,2.4,3%,0.4%,-10,-4
O=C(O)c1cc(N2C(=O)C=CC2=O)cc(N2C(=O)C=CC2=O)c1,-11,.,-2.1,.,1.7%,-74*,13
O=C(CSc1nnc(-c2ccccc2Cl)n1Cc1ccco1)Nc1ccc2c(c1)OCCO2,?,2,0.2,-3%,-1.9%,-15,11
Cc1occc1C(=O)N1CCN(c2ccc(Cl)c(Cl)c2)CC1,-15,-16,0.9,?,0.0%[38.3 µM],-6,-3
O=C(NCc1ccccc1)c1cc(C2COCCN2S(=O)(=O)c2ccccc2)on1 (centres undefined),11,.,1.4,.,1.4%,2,-1
O=C(CSc1nc2ccccc2c(=O)n1-c1ccc(F)cc1)Nc1ccc(C(=O)O)cc1,1,23,-0.5,?,1.6%,3,-1
CCOC(=O)C1(CCc2ccccc2)CCN(C(=O)C2=C(C)OCCO2)CC1,-15,-14,-5.0,-2%,-1.3%,3,4
COc1ccccc1NC(=O)CSc1nc(=O)n(CCN2CCOCC2)c2c1CCC2,1,13,3.7,.,-1.2%,2,0
CC1(C)C(=O)Nc2ccccc2N1C(=O)CSc1nnc2c(Cl)cc(Cl)cn12,3,-7,2.6,3%,-2.4%,4,1
COc1ccccc1CCC(=O)Nc1ccc2c(c1)c(=O)n(C)n2Cc1cccc(C(F)(F)F)c1,2,.,5.5,.,3.3%,0,-6
Cc1ccc(C)c2[nH]c(=O)c(C(c3nnnn3C(C)(C)C)N3CC=C(c4ccc(F)cc4)CC3)cc12 (centres undefined),-11,-2,0.2,9%,5.9%,0,-6
CC(C)Cc1cc(C(=O)N2CCC(N3CCC(C(=O)N4CCCC4)CC3)CC2)n[nH]1,7,12,-2.2,27%,3.2%,9,-5
CCn1c(=S)sc2c(=O)n(CC(=O)Nc3ccc(Cl)cc3)c(C)nc21,1,0,5.2,13%,11%,-1,-5

# Of the compounds above, these have a furan ring, fused or not.
SMILES,CtBP-E1A inh,TRPV1 potentiator,D2 agonist,Sfp inh,PINK1 expr mod,Six1-Eya2 blk,D2 PAM
COc1ccc2oc(C(=O)NCc3cc(OC)c(OC)cc3OC)c(C)c2c1,-24,-6,-2.0,-8%,3.1%,-15,-6
O=C(NCc1cccs1)C(=O)NCC(c1ccco1)N1CCN(c2ccccc2F)CC1 (centres undefined),0,-1,9.7,27%,0.8%,-4,-3
O=C(CSc1nnc(-c2ccccc2Cl)n1Cc1ccco1)Nc1ccc2c(c1)OCCO2,?,2,0.2,-3%,-1.9%,-15,11
Cc1occc1C(=O)N1CCN(c2ccc(Cl)c(Cl)c2)CC1,-15,-16,0.9,?,0.0%[38.3 µM],-6,-3

# The list continues.
SMILES,CtBP-E1A inh,TRPV1 potentiator,D2 agonist,Sfp inh,PINK1 expr mod,Six1-Eya2 blk,D2 PAM
COc1ccc(S(=O)(=O)N(C)CC(=O)NCCCN2CCOCC2)cc1C,4,.,-4.0,.,-1.0%,5,-1
CCNS(=O)(=O)c1c(C)cc(C)c(N(C)S(=O)(=O)c2ccccc2)c1C,0,-8,1.5,2%,1.5%,-2,-7
Cc1c(N2C(=O)C(=O)/C(=C(/O)c3ccccc3)C2c2ccc(F)cc2)c(=O)n(-c2ccccc2)n1C (centres undefined),-3,1,-1.2,13%,2.9%,0,2
Cc1cc[n+](CC(=O)Nc2nc3ccccc3s2)cc1,7,5,-2.1,-2%,-0.6%,3,-5
CC(C(=O)O)n1c(-c2ccn[nH]2)n[nH]c1=S (centres undefined),9,-8,-1.9,?,-1.2%,-1,-8
Cn1cc([N+](=O)[O-])c(C(=O)Nc2ccn(C34CC5CC(CC(C5)C3)C4)n2)n1,-10,-16,-1.3,-6%,-0.8%,-13,-11
Cc1ccnc(NC(=O)c2c(-c3ccccc3Cl)noc2C)c1,3,?,-1.9,25%,2.8%,5,0
COc1ccc(OCc2cccc(C(=O)O)c2)cc1,-6,26,-0.7,14%,0.2%,-6,-9
O=C(Cn1c(=O)oc2ccccc21)Nc1ccc(S(=O)(=O)N2CCCCC2)cc1,2,-5,-4.3,4%,9.6%,2,-4
Cc1sc2ccccc2[n+]1CCC(C)S(=O)(=O)[O-] (centres undefined),7,2,-12,45µM*,0.5%,7,-36
COc1ccc(C(=O)NCCc2cccc(Cl)c2)cc1OC1CCN(C(C)=O)CC1,-8,12,-0.1,-9%,2.1%,2,6
O=[N+]([O-])c1ccccc1S(=O)(=O)Nc1cccc(-c2ccc(N3CCOCC3)nn2)c1,-4,0,1.9,.,2.2%,-13,3
O=C(CSc1nnnn1C1CCCC1)Nc1ccccc1N1CCOCC1,.,1,4.0,19%,-1.3%,-7,-4
